Source: PubChem BioAssay (National Center for Advancing Translational Sciences (NCATS))
HPGD inh – qHTS Assay for Inhibitors of HPGD (15-Hydroxyprostaglandin Dehydrogenase); purified HPGD, NADH fluorescence kinetic, PGE2 substrate; 15-hydroxyprostaglandin dehydrogenase [NAD(+)] (Homo sapiens), P15428; 150,000 compounds, 4.3% hits; Potency, µM, for inactives: top-dose activity change, negative = inhibition, most hits filed as inhibitors; active = well fitted inhibition curve with a large enough effect (not every such curve was filed as active); inconclusive = small, poorly fitted or top-dose-only effect, or another doubt; inactive = no such curve, though single readings can be large or run the other way;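 also: top concentration of the series not given in the record; plate controls included wells without enzyme; inactives centre near -10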
Target sequence (P15428 whole entry, looked up): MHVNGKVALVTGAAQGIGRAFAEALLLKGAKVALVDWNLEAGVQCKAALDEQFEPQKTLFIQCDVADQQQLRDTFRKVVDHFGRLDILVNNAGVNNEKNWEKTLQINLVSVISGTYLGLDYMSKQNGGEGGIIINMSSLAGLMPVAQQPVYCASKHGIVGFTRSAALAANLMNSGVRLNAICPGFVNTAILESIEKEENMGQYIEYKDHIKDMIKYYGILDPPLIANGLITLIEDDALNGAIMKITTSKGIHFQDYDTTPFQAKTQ
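20 nM HPGD preincubated 15 min at room temperature with compound in 50 mM Tris-HCl pH 8, 0.01% Tween 20. Started with 1 mM NAD+ and 30 uM prostaglandin E2; NADH fluorescence (360/450 nm) read 5 times over 30-s intervals, last minus first.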
* marks the source's active call; other numbers are inactive results; ? = inconclusive; & = joins results of further samples. % is scaled to controls: 0 for no effect and ±100 for the full control effect; potency is read from the fitted curve at half-maximal effect. An excerpt; rates above refer to the full screens.

HPGD inh	molecule
-11.4%	N#Cc1cnn(CC2CCCCC2)c1N
-7.0%	Cc1ccc(NC2=C([N+](=O)[O-])CS(=O)(=O)C2)cc1
-6.8%	O=c1[nH]ncc(N2CCN(C(c3ccccc3)c3ccccc3)CC2)c1Cl
-25.2%	Cc1c(NC(=O)/C(C#N)=C/c2ccc(-c3ccccc3Cl)o2)c(=O)n(-c2ccccc2)n1C
-6.5%	COc1ccc(CN2CCN(S(=O)(=O)c3ccc(F)cc3)CC2)cc1OC
-14.2%	CCOC(=O)C1C(=O)CC(C)(O)C(C(=O)OCC)C1c1ccc(Br)o1 (stereo unspecified)
7.08µM*	COC(=O)c1ccc(CSc2ncnc3c2nnn3-c2ccc(F)cc2)o1
-17.0%	CCCCCCn1c(CN2CCN(C(=O)c3ccco3)CC2)nc2c1c(=O)n(C)c(=O)n2C
-1.6%	O=C(Cc1ccccc1)NNC(=O)Nc1ccc(Cl)c(Cl)c1
-0.2%	Cc1nnc(SCC(N)=O)n1CC1CCCO1 (stereo unspecified)
-16.7%	Cc1nc(Oc2ccc(S(=O)(=O)N3CCOCC3)cc2Cl)c2c3c(sc2n1)CCCC3
0.199µM*	C[Si](C)(c1ccc(C(=O)O)cc1)c1ccc(C(=O)O)cc1
-12.9%	C/C(CC(=O)NCC(C)C)=N\NC(=O)COc1cc(C)c(Br)cc1Br
0.0%	Cc1ccc(-c2csc(NC(=O)c3ccno3)n2)cc1
-13.7%	O=C(Cn1cnc2c(cnn2-c2ccc(F)cc2)c1=O)NCc1ccco1
-13.4%	O=C(c1cccs1)N1CCN(S(=O)(=O)N2CCOCC2)CC1
-7.7%	Cc1sc(NC(=O)C2CCCCC2C(=O)O)c(C(N)=O)c1-c1ccc(C(C)C)cc1 (stereo unspecified)
-20.1%	Cn1cc(SCC(=O)NCc2ccc3c(c2)OCO3)c2ccccc21
-4.5%	CCCCNC(=O)C(c1ccc(OCC(=O)OC)c(C(=O)OC)c1)N(CCc1ccccn1)C(=O)CCCCCN1C(=O)NC(c2ccc(-c3ccccc3)cc2)C(C(=O)OCc2ccccc2)=C1C (stereo unspecified)
-15.1%	O=C(CCCN1C(=O)/C(=C/c2cccc(Br)c2)SC1=S)Nc1ccccn1
-5.1%	O=C(Nc1ccccc1N1CCOCC1)C1Cc2ccccc2CN1C(=O)c1ccco1 (stereo unspecified)
?	O=C1C=C(c2ccccc2)C(=O)N1Nc1ccccc1
1.4%	CN1C(=O)[C@@H]2[C@@H]3C[C@@H]([C@H]4ON=C(c5ccc(Cl)cc5)[C@@H]34)[C@@H]2C1=O
-16.4%	Oc1ccc(N=Nc2n[nH]c(-c3ccc(Br)cc3)n2)cc1
?	CC(C)Cc1nc2oc3c(=O)[nH]cnc3c2c2c1CCC2
-8.7%	CC(C)Cn1c(NCCN(C)C)nc2c1c(=O)[nH]c(=O)n2C
-14.4%	CCC(c1nnc(SCC(=O)Nc2nnc(-c3ccccc3)o2)o1)N(C)C (stereo unspecified)
-13.3%	COc1ccccc1/C=N/Nc1nccnc1Cl
-17.8%	O=C(NC1CCCc2ccccc21)c1ccc(Cl)nc1 (stereo unspecified)
3.98µM*	CCc1n[nH]c2c1/C(=N\O)CC(c1ccccc1)C2 (stereo unspecified)
-13.9%	O=C(O)CCC(=O)NCC1OCCc2ccccc21 (stereo unspecified)
-15.6%	CC1CC2(CC(C)(C(=O)CSc3nc4ccccc4s3)OC2=O)C(=O)O1 (stereo unspecified)
-9.6%	CS(=O)(=O)N(CC(=O)O)c1cccc(Cl)c1
1.9%	Clc1cccc(Oc2ncc(CN3CCOCC3)s2)c1
-9.1%	Fc1ccc(C2=Nn3c(nnc3-c3n[nH]c4c3CCC4)SC2)cc1
0.8%	Cc1ccc([N+](=O)[O-])cc1-c1[nH]c(-c2ccc(O)c(O)c2)nc1-c1ccccc1
2.0%	Cc1ccc(S(=O)(=O)N(CC(=O)N2CCOCC2)C2CCCCC2)cc1
28.2µM*	N#Cc1ccc(CN2CC[C@@]3(CCCN(C(=O)c4cccc(F)c4)C3)C2)cc1
-15.2%	Fc1ccc(N2CCN(Cc3cnc(Oc4ccc(Br)cc4)s3)CC2)cc1
-15.4%	Cc1cc(C)c(S(=O)(=O)N(C)CC(N)=O)c(C)c1
0.6%	CCOC(=O)C1C(=O)NCC1c1ccccc1 (stereo unspecified)
-24.7%	CC(=O)Nc1cc(C(=O)NCc2ccco2)ccc1Sc1ccc(F)cc1
-13.9%	Cc1cc(=O)c2cccc(Br)c2[nH]1
-2.2%&-2.3%	COC(=O)C1=C(C)N(CCc2cc(OC)c(OC)c(OC)c2)C(=O)N[C@H]1c1ccc(Br)cc1
1.4%	CC(=O)c1cc(C#N)c(Oc2ccc(F)cc2)nc1C
-17.4%	Cc1ccc(S(=O)(=O)c2c(C)nn(-c3ccccc3)c2OC(=O)c2ccc(Br)o2)cc1
?	Cn1c(=O)c(Oc2ccc(Cl)cc2)c(O)c2ccccc21
-6.6%	CCCCNC(=O)NCc1cnn(C)c1C
-4.7%	Cc1ccc(Nc2cc(-n3cccn3)ncn2)c(C)c1
0.5%	CCCCC1CC(/C(C)=N/NC(N)=O)OC1=O (stereo unspecified)
-3.5%	CC1(C)CC2C1CCC1(C)OC2(C)CCC1O (stereo unspecified)
?	CC(C)C(NS(=O)(=O)c1ccc2c3c(cccc13)C(=O)N2)C(=O)O (stereo unspecified)
-24.5%	CC(=O)Nc1cccc(C(=O)/C=C/c2ccc(N(C)C)cc2)c1
-6.8%	COc1ccc(C(=O)OC(COc2ccccc2)Cn2ccnc2)cc1 (stereo unspecified)
?	c1cncc(CNc2cccc(-c3nc4ccccc4[nH]3)c2)c1
-3.4%	Cc1c(C)c2c(c(C)c1O)CC[C@@](C)(C(=O)O)O2
-12.2%	CC1(C)Nc2ccccc2N(CCC(=O)N2CCOCC2)C1=O
-14.8%	CCN(CC)S(=O)(=O)c1ccc(NC(=S)NC(=O)CC(C)C)cc1
-15.9%	O=C(OCc1ccccc1Cl)c1cccnc1Cl
?	CCOC(=O)c1cn(Cc2cccc(C)c2)nn1

The results go on.
HPGD inh	molecule
?	COC(=O)c1ccc(C(=O)OC)c(NC(=O)CSCc2ccc(Br)cc2)c1
-3.3%	CC(C)CC(C(=O)NCC1CCCO1)N(C(=O)Cn1nnc(-c2ccc(F)cc2)n1)c1cccc(C(F)(F)F)c1 (stereo unspecified)
12.6µM*	O=C1NC(=O)/C(=C\c2ccc(Oc3ccc([N+](=O)[O-])cn3)cc2)S1
-3.4%	CCC(C)(C)C(=O)Nc1ccc(C(N)=O)cc1
-7.8%&-3.2%&-7.9%	CCCCOc1ccc(OCCCN2CCOCC2)cc1
-6.6%	O=C(COC(=O)Cn1cnc2ccccc2c1=O)Nc1ccc(Cl)c(C(F)(F)F)c1
-11.6%	CC(C)C(=O)Nc1cccc(C(=O)Nc2nnc(C(C)C)s2)c1
-4.8%	O=C(Nc1ccc(Cl)cn1)c1cccnc1
-6.5%	CCOc1ccc(C(=O)N[C@H](C(=O)O)C(C)C)cc1
-14.5%	COC(=O)c1ccccc1OCc1cccc(C)n1
-7.6%	CN(C)CCNS(=O)(=O)c1ccc(N2CCN(c3ccc(F)cc3)CC2)c([N+](=O)[O-])c1
-24.2%	CN(C)S(=O)(=O)c1cc(C(=O)O)c(NC2CCCCC2)cc1Cl
-10.6%	O[C@@H](c1cc(-c2ccccc2)nc2c1ccc1ccccc12)C1CCCCN1 (stereo partly specified)
-9.3%	CCCc1nnc2n1N=C(c1ccc(-c3cc(Cl)ccc3Cl)o1)CS2
?	Cc1ccc(NC(=O)c2cn(-c3cccc(C)n3)cn2)cc1
?	C=CCNc1ncnc2c1[nH]c1ccc(C)cc12
?	CCCCN(CC)c1nc(N)c(C#N)c(CC#N)c1C#N
0.9%	COc1ccc(-n2c(COc3ccccc3)nnc2SCC(N)=O)cc1
-13.1%	Cc1ccc(S(=O)(=O)Cn2nnnc2CN2CCCC3(CCCCC3)C2)cc1
-1.3%	CCN1CCN(c2cc(=O)n(-c3cc(Cl)ccc3C)c(=O)[nH]2)CC1

An excerpt from above in order of the HPGD inh value, lowest first.
smiles | HPGD inh
COC(=O)c1ccccc1OCc1cccc(C)n1 | -14.5%
O=C(COC(=O)Cn1cnc2ccccc2c1=O)Nc1ccc(Cl)c(C(F)(F)F)c1 | -6.6%
O=C(Nc1ccc(Cl)cn1)c1cccnc1 | -4.8%

The listing continues.
HPGD inh	molecule
-3.0%	COC(=O)C1=C(C(=O)OC)[C@@H]2N(C)c3ccc(OC)cc3[C@@]23C[C@@H](C(=O)OC)N(S(=O)(=O)c2ccc(OC)cc2)C3=N1
-19.5%	CC(=O)c1c(C)[nH]c(C(=O)NCCC2=CCCCC2)c1C
-1.2%	CC#CCN1c2ccccc2[C@]23C[C@@H](C(=O)OC)N(C(=O)c4cccs4)C2=NC(C(=O)OC)=C(C(=O)OC)[C@H]13
-16.1%	Clc1ccc2c(N/N=C/c3ccc(Br)cc3)ccnc2c1
-8.1%	COC(=O)C(C(=O)Nc1ccc(OC)cc1)C1CCCCCC1 (stereo unspecified)
-28.1%	c1ccc(OCc2nn3c(-c4ccncc4)nnc3s2)cc1
-5.7%	[N-]=[N+]=NC[C@@H]1O[C@@H](n2cnc3c(N)ncnc32)[C@@H]2O[C@@H]21
1.1%	O=C(COC(=O)Cn1c(C(F)(F)F)nc2ccccc21)Nc1ccc2c(c1)OCCO2
-19.7%	N#C/C(=C\c1cccnc1)C(=O)NC1CCCCC1
-22.1%	O=C(Nc1cccnc1)c1cccc(NC(=O)c2ccco2)c1
-6.1%	Cc1ccc2nc(N(CCCN(C)C)C(=O)CCc3ccccc3)sc2c1
-1.5%	O=C(CCNC(=O)c1ccc(Br)o1)NCc1ccccc1Cl
-26.1%	CCC(C)C(=O)Nc1nc(-c2ccc3c(c2)NC(=O)CO3)cs1 (stereo unspecified)
-10.8%	CCn1c(=O)c(C(=O)CN2CCCc3ccccc32)c(N)n(Cc2ccccc2)c1=O
?	Cn1c(C(=O)Nc2ccc3c(c2)OCO3)cc2c(=O)n(C)c3ccccc3c21
-3.0%	CCOC(=O)N1CCN(C(=O)c2cc(-n3cnnc3)ccc2Cl)CC1
1.6%	CCn1c(Cc2ccccc2)nnc1SCc1cccc(C(=O)O)c1
?	COC(=O)c1sc2nc(SCc3ccccc3C#N)n(N)c(=O)c2c1C
0.8%	O=c1nc(N2CCCCC2)nc2n1CCO2
-4.0%	COc1ccccc1C1NC(=O)NC(C)=C1C(=O)Nc1cccc(C)c1C (stereo unspecified)
-13.1%	Cc1ccc(CNC(=O)CC2C(=O)Nc3c2c(=O)n(C)c(=O)n3Cc2ccccc2)cc1 (stereo unspecified)
?	COC(=O)c1ccc(COc2ccc(/C=C(\C#N)c3nc4ccccc4[nH]3)cc2OC)o1
2.9%	O=C(c1ccco1)N1CCN(C(c2cccs2)c2nnnn2C2CCCCC2)CC1 (stereo unspecified)
-7.1%	COc1c(/C=N/Nc2ccc([N+](=O)[O-])cc2[N+](=O)[O-])c(C)nn1-c1ccccc1
-9.7%	COc1cccc2c1C(=O)c1c(O)c3c(c(O)c1C2=O)C[C@](O)(C(=O)CO)C[C@H]3O[C@@H]1C[C@H](N)[C@H](O)[C@H](C)O1
-7.5%	COC(=O)c1ccc(COc2ccccc2/C=N/NS(=O)(=O)c2ccccc2)cc1
-8.3%	Cc1onc(-c2c(Cl)cccc2Cl)c1C(=O)N1CCc2ccccc2C1
-23.9%	O=C(c1ccccc1)c1c[nH]c2cc3c(cc2c1=O)OCCO3
-10.4%	CN1CCN(c2ncnc3c2sc2nc(N4CCCC4)c4c(c23)CC(C)(C)OC4)CC1
-16.5%	CN1C(=O)CSc2ccc(NC(=O)NCc3ccco3)cc21
-17.6%	Cc1c(-n2cc(C(=O)c3ccccc3O)cc(C#N)c2=O)c(=O)n(-c2ccccc2)n1C
?	Cc1cc(C)n(CC(=O)NCc2cc(-c3nn(C)c(=O)c4ccccc34)ccc2C)n1
3.6%	Cc1cccc(C)c1NC1=NC(C)(C)N=C(N)N1
-9.4%	CC(C)Cn1c(N)c(C(=O)COC(=O)c2ccncc2)c(=O)n(C)c1=O
-22.6%	Cc1nc(NCc2ccccc2)c2nc(-c3ccccc3)n(CC3CCN(C)CC3)c2n1
-20.6%	COc1cc(OC)cc(C(=O)NCC(=O)OCC(=O)c2cc(OC)ccc2OC)c1
-13.4%	Cc1ccc(NC(=O)CSc2nnc(-c3cccnc3)n2-c2ccc(C)cc2)cc1
-8.7%	CC(=O)Nc1cccc(C(=O)OCc2ccc(C(=O)Oc3ccc(Cl)cc3)cc2)c1
-8.4%	COc1ccc(-c2nc(-c3ccccc3)oc2Nc2c(C)cccc2C)cc1
-12.5%	O=C(C[n+]1cccc(NC(=O)c2ccccc2)c1)c1ccc(NC(=O)c2ccccc2)cc1
-6.8%	CN(Cc1ccccc1)Cc1nc2c(c(=O)n(C)c(=O)n2C)n1Cc1ccc(F)cc1

Structural class: those above with two or more sulfur atoms
HPGD inh	molecule
-16.7%	Cc1nc(Oc2ccc(S(=O)(=O)N3CCOCC3)cc2Cl)c2c3c(sc2n1)CCCC3
-13.4%	O=C(c1cccs1)N1CCN(S(=O)(=O)N2CCOCC2)CC1
-15.1%	O=C(CCCN1C(=O)/C(=C/c2cccc(Br)c2)SC1=S)Nc1ccccn1
-15.6%	CC1CC2(CC(C)(C(=O)CSc3nc4ccccc4s3)OC2=O)C(=O)O1 (stereo unspecified)
-14.8%	CCN(CC)S(=O)(=O)c1ccc(NC(=S)NC(=O)CC(C)C)cc1
?	COC(=O)c1sc2nc(SCc3ccccc3C#N)n(N)c(=O)c2c1C
